HNF4A DNA FP = change in binding of human HNF4 alpha to DNA | activity change, % at 10 µM | 360,000 tested, 0.3% active | HNF4a-FITC DNA binding, fluorescence polarization, 1 h; in the data active = activity change above about 30%, passing the limit was not always enough;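 note: controls were the assay level and a saturating level of protein; the project sought stronger binding though the title names inhibitors; some compounds called inactive have numbers as strong as hits; positive values seem to mean higher polarization but the record does not say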
Target sequence (P41235 whole entry, looked up): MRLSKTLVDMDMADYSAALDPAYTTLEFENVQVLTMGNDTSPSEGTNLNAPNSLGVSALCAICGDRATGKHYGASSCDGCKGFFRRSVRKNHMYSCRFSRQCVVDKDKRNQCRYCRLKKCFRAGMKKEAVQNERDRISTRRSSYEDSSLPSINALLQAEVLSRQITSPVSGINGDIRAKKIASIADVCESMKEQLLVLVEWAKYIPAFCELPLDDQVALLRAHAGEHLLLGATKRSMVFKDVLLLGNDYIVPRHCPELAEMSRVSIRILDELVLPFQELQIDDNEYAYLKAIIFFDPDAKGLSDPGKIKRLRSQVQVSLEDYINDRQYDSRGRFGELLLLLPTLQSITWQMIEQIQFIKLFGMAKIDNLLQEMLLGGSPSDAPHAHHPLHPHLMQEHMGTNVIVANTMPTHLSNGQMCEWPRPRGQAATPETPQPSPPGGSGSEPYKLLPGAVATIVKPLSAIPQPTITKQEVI
ALR H2O2 inh = human ALR oxidase inhibition via reduced H2O2; P55789; purified ALR, DTT oxidation, H2O2 HRP-luminol luminescence; inhibition, % (no concentration beside the values); 290,000 tested, 3.8% active; AID 485317;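 active = mean and each replicate at 75% or more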;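 note: stock transfer was 7.5 nL into about 7.5 µL; 0% = neutral wells and 100% = wells with inactivated enzyme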
Target sequence (P55789 whole entry, looked up): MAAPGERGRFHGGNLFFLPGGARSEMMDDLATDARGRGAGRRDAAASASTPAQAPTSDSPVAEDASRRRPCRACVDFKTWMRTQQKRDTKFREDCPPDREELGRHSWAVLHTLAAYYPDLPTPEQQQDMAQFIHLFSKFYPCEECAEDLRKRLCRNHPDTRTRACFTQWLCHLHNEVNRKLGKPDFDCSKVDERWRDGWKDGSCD
UCH37 inh = human UCH37 deubiquitinating enzyme inhibition; Q9Y5K5; purified proteasome/UCH37, Ub-AMC cleavage fluorescence; inhibition, % (no concentration beside the values); 330,000 tested, 0.33% active; AID 588478;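 active = mean of two replicates above 20%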;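 note: 0% = compound-free wells with enzyme and 100% = wells lacking proteasome; stock transfer was 100 nL into about 20 µL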
Target sequence (Q9Y5K5 whole entry, looked up): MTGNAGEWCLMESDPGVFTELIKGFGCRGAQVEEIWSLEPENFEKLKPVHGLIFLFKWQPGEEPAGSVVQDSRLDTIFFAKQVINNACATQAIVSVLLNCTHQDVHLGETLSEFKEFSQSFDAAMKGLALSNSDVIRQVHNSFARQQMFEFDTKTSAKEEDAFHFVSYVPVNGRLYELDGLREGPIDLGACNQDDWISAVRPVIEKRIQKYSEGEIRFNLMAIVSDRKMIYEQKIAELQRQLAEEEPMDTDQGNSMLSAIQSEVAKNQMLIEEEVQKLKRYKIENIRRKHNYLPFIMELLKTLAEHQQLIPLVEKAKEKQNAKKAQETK
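Material: Human UCH37 enzyme supplied as purified proteasome complex | Schedule: 30 min preincubation with enzyme, 25 min cleavage at room temperature | Detection: AMC fluorescence 355/460 nm | Measure: % inhibition of Ub-AMC cleavage fluorescence | Controls: Wells without proteasome as full block, compound-free enzyme plus substrate as uninhibited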
Ecoli growth = blocks Escherichia coli growth | OD600, 23 h; hits give low values | OD600 absorbance (concentration not given with the values) | 330,000 tested, 0.21% active;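 active = OD600 absorbance below the run mean of sample wells minus 3.6 SD, in any replicate, cut at about 0.56 in these data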;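 note: stock transfer was 300 nL into about 60 µL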
Ecoli rRNA inh = inhibitors of bacterial rRNA selective over humanized ribosomes | GFP signal change (wild-type ribosome), % (concentration not given with the values) | E. coli WT GFP vs humanized-ribosome RFP mutants, fluorescence, 24 h; hits give low values; DMSO median 0, no signal -100 | 350,000 tested, 1.6% active | AID 720706;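 active = significant combined selectivity score with lowered wild-type GFP, culture density cut under 30%, mutant RFP and density less affected; inactive = any of these conditions unmet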; note: one replicate is shown; some compounds called inactive have numbers as strong as hits
FGF22 binding = FGF22 (human) thermal shift binding | Q9HCT0 | recombinant FGF22 thermal shift, SYPRO orange fluorescence; percent of sucrose octasulfate shift, DMSO zero | calls only at 9.99 µM | 340,000 tested, 1.5% active | AID 651658;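 active = melting point raised past a set limit in the mean and every replicate; three in four hits are not shown here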
Beta2AR agonist = activates human beta-2 adrenergic receptor causing internalization; P07550; Am2.2-beta2AR cells, FAP receptor internalization, flow cytometry; reference of the scale not given here; response, % (concentration not given with the values); 340,000 tested, 0.43% active; AID 504454;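 active = response above a set limit, near 3 SD of response in nonfluorescent compounds, cut at about 42% in these data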;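 note: stock transfer was 100 nL into about 11 µL; a reference agonist was the positive control; negative values mostly stem from fluorescent compounds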
Ecoli rRNA inh OD600 = further read-out of Ecoli rRNA inh, marked with its call; OD600 change, %; measured here: OD600 growth;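 optical density of the mix in the first replicate; 0 = DMSO median and -100 = no signal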
Ecoli rRNA inh RFP = further read-out of Ecoli rRNA inh, marked with its call; RFP signal change, %; measured here: RFP humanized mutant strains;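 first replicate; 0 = DMSO median and -100 = no signal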
* hit, by the source's call; i = inactive; · = no result given. An excerpt; the hit share may differ from the screen's.

Preview:
Screens in order – HNF4A DNA FP | ALR H2O2 inh | UCH37 inh | Ecoli growth | Ecoli rRNA inh | Ecoli rRNA inh OD600 | Ecoli rRNA inh RFP | FGF22 binding | Beta2AR agonist
1: CCOC(=O)C1(CC2CCCCO2)CCN(Cc2nc(C(C)C)cs2)CC1 (configuration not stated)
  1.9 | 0.5 | -2.0 | 0.654 | -29.4* | -19.9* | 2.2* | i | -5.8
2: CC(C)(C)C(=O)CSc1ncnc2c1cnn2Cc1ccccc1
  -0.6 | -0.2 | 4.5 | 0.675 | 2.5 | -16.9 | 4.0 | i | 0.9

Results, repeating the preview:
Screens in order – HNF4A DNA FP | ALR H2O2 inh | UCH37 inh | Ecoli growth | Ecoli rRNA inh | Ecoli rRNA inh OD600 | Ecoli rRNA inh RFP | FGF22 binding | Beta2AR agonist
1: CCOC(=O)C1(CC2CCCCO2)CCN(Cc2nc(C(C)C)cs2)CC1 (configuration not stated)
  1.9 | 0.5 | -2.0 | 0.654 | -29.4* | -19.9* | 2.2* | i | -5.8
2: CC(C)(C)C(=O)CSc1ncnc2c1cnn2Cc1ccccc1
  -0.6 | -0.2 | 4.5 | 0.675 | 2.5 | -16.9 | 4.0 | i | 0.9
3: COc1cc(OC)c(NS(=O)(=O)c2coc(C(N)=O)c2)cc1Cl
  2.1 | · | 3.4 | 0.741 | 7.9 | -1.5 | 0.0 | i | 26.9
4: Cc1ccc(-n2c(C)cc(C(=O)COC(=O)c3c(C)noc3C)c2C)cc1
  -0.3 | -5.7 | 1.5 | 0.738 | · | · | · | · | -6.0
5: Cc1[nH]c2ccccc2c1C(O)CN1CCC2(CC1)OCCO2 (configuration not stated)
  -0.5 | 0.2 | 1.4 | 0.648 | 5.3 | -4.5 | 2.4 | i | -7.7
6: CSc1ccc(CNC(=O)C2(C)CCN2C(C)C)cc1 (configuration not stated)
  -0.6 | · | · | · | 3.8 | 10.8 | -2.7 | i | ·
7: COc1ccc(NC(=O)c2ccccc2NC(=O)C2CCCCC2C(=O)O)cc1 (configuration not stated)
  0.5 | · | · | · | -6.6 | 0.1 | -0.9 | i | 6.7
8: COc1ccc(/C(O)=C2/C(=O)C(=O)N(CCN(C)C)C2c2ccccn2)cc1OC (configuration not stated)
  3.3 | -19.7 | 7.5 | 0.722 | · | · | · | · | 0.5
9: Cc1ccc(NC(=O)C[n+]2cc(-c3ccccc3)n3c2CCC3)c(C)c1
  0.3 | 7.9 | 2.1 | 0.669 | -21.2* | 0.6* | 3.0* | i | -12.9
10: COc1ccc(-n2c(SCCNCCO)nc3sc4c(c3c2=O)CCCC4)cc1
  4.6 | -82.0 | 7.8 | 0.623 | -3.6 | -4.7 | 3.3 | i | 26.4
11: COc1ccc(CCNC(=O)CSc2nn(-c3ccccc3)c(=S)s2)cc1
  -1.6 | -2.3 | 3.0 | 0.674 | -0.2 | -1.0 | -4.6 | i | -4.0
12: CC(=O)c1cccc(NC(=O)COC(=O)c2cccs2)c1
  3.1 | -2.0 | 0.7 | 0.649 | 3.8 | -22.3 | 1.3 | i | -4.5
13: CC(=O)Nc1ccc(S(=O)(=O)NC(C)C(=O)NCCc2ccc(F)cc2)cc1 (configuration not stated)
  7.1 | 98.3* | 1.2 | 0.659 | 12.0 | 14.9 | -0.5 | i | -1.6
14: O=C1NC[C@H](c2ccccc2)OC(=O)[C@H](Cc2ccc(F)cc2)CC/C=C/C[C@H]1CC(=O)N(CCO)Cc1ccccc1
  -2.2 | 10.0 | 2.2 | · | -7.8 | -14.0 | -5.8 | i | 16.0
15: CC(C)(C)NC(=O)C(c1ccc(OCC(N)=O)cc1)N(C(=O)c1cccnc1)C1CC1 (configuration not stated)
  -1.3 | -21.2 | 0.2 | 0.685 | · | · | · | · | 1.5

The last 3 compounds of the section before are carried over, then new ones follow:
Screens in order – HNF4A DNA FP | ALR H2O2 inh | UCH37 inh | Ecoli growth | Ecoli rRNA inh | Ecoli rRNA inh OD600 | Ecoli rRNA inh RFP | FGF22 binding | Beta2AR agonist
13: CC(=O)Nc1ccc(S(=O)(=O)NC(C)C(=O)NCCc2ccc(F)cc2)cc1 (configuration not stated)
  7.1 | 98.3* | 1.2 | 0.659 | 12.0 | 14.9 | -0.5 | i | -1.6
14: O=C1NC[C@H](c2ccccc2)OC(=O)[C@H](Cc2ccc(F)cc2)CC/C=C/C[C@H]1CC(=O)N(CCO)Cc1ccccc1
  -2.2 | 10.0 | 2.2 | · | -7.8 | -14.0 | -5.8 | i | 16.0
15: CC(C)(C)NC(=O)C(c1ccc(OCC(N)=O)cc1)N(C(=O)c1cccnc1)C1CC1 (configuration not stated)
  -1.3 | -21.2 | 0.2 | 0.685 | · | · | · | · | 1.5
16: CC(C)=C1SC(N2CCCCC2)=NC1=O
  0.0 | -3.6 | 2.5 | 0.673 | · | · | · | · | 1.6
17: Cc1nn(CC(=O)NCCCN2CCN(C)CC2)c(=O)c2cc(-c3ccccc3)nn12
  3.5 | 0.2 | 4.2 | 0.68 | 2.2 | 0.9 | 0.4 | i | -9.7
18: O=C(CCc1ccc(S(=O)(=O)NCc2ccccc2)cc1)NCC1CCCO1 (configuration not stated)
  1.3 | 1.3 | 3.0 | 0.727 | · | · | · | · | 2.8
19: COc1ccccc1-c1oc2ccccc2c1C#CC(C)(C)O
  -3.5 | 32.7 | -6.6 | 0.651 | -47.6 | -75.8 | -29.1 | i | 2.4
20: Cc1ccc(S(=O)(=O)NCc2ccccc2)cc1C(=O)N1CCCCC1
  4.0 | -1.3 | 0.4 | 0.707 | 0.4 | 2.1 | -2.2 | i | 11.6
21: CCn1c(SCC(=O)Nc2nnc(C)s2)nc2c(c1=O)SC(C)C2 (configuration not stated)
  0.9 | 1.1 | 3.1 | 0.669 | 1.5 | 6.6 | -8.9 | i | -11.1
22: Fc1ccccc1C1c2cccn2CCN1C(=S)Nc1cccc(Br)c1 (configuration not stated)
  -4.2 | · | 1.2 | 0.705 | 11.0 | 11.8 | 0.7 | · | -0.7
23: N#Cc1ccsc1NC(=O)COC(=O)CCS(=O)(=O)c1ccccc1
  9.6 | 1.8 | 0.7 | 0.648 | 14.4 | 21.3 | 2.7 | i | 5.9
24: CSc1ccccc1NC(=O)c1cccnc1
  0.5 | 2.6 | 1.6 | 0.657 | · | · | · | · | -1.6
25: COc1ccccc1/C=C(\NC(=O)c1ccc(OC)c(OC)c1)C(=O)Nc1ccc([N+](=O)[O-])cc1
  0.4 | -6.5 | 4.6 | 0.737 | 5.6 | 10.0 | 0.9 | i | 1.7
26: O=C(c1ccccc1F)N1CCN(S(=O)(=O)c2ccc(Br)cc2)CC1
  -13.8 | -7.7 | 7.0 | 0.716 | · | · | · | · | -13.0
27: Cc1ccc(NC(=O)NNC(=O)c2cccs2)cc1
  -1.9 | -0.5 | · | · | · | · | · | · | -6.1
28: C=CCn1c(=O)c2ccccc2n2c(SC(C)C(=O)Nc3nc(-c4ccccc4)cs3)nnc12 (configuration not stated)
  -0.9 | 13.4 | 1.0 | 0.753 | · | · | · | · | 6.0
29: Cc1ccc(S(=O)(=O)N(C)C)cc1NC(=O)CCNC(=O)c1ccco1
  -0.2 | 1.3 | 1.8 | 0.664 | · | · | · | i | -0.5
30: Cc1ccc(NC(=O)Cn2c(=O)n(CCC(=O)NC3CCN(Cc4ccccc4)CC3)c(=O)c3ccccc32)cc1
  1.1 | -9.2 | -0.9 | 0.727 | 3.0 | 8.1 | 13.2 | i | 9.3
31: NC(=O)c1c(NC(=O)CN2C(=O)CCC2=O)sc2c1CCCCC2
  -4.1 | 69.1 | 1.4 | 0.776 | 3.5 | 10.5 | 0.0 | i | -3.0
32: O=C(O)Cc1ccc(NC(=O)C(c2ccccc2)c2ccccc2)cc1
  -2.5 | 11.3 | 3.5 | 0.709 | -12.7 | 0.1 | -1.8 | i | -2.2
33: COC(=O)[C@@H]1C[C@H]2CC[C@H](O)C[C@H]2N1Cc1ccccc1OS(=O)(=O)c1ccc(C)cc1
  10.9 | -7.5 | 3.4 | · | -1.2 | -1.9 | 3.8 | i | -1.5
34: COc1ccc(Nc2ncc(C(=O)N3CCN(c4ccc(F)cc4)CC3)c3ccccc23)cc1
  -1.1 | -17.1 | -20.8 | 0.752 | · | · | · | · | 17.6
35: CN(C)CCCNC(=O)OC1CC2CC1[C@H]1CCCCN1C2=O (some centres not stated)
  8.4 | · | · | · | 18.0 | 16.6 | 1.3 | i | ·
36: COc1cc2c(cc1OC)C(C)N(C(=O)c1ccc(Br)o1)CC2 (configuration not stated)
  1.4 | -11.7 | -1.5 | 0.677 | · | · | · | · | -18.2
37: CC(C)(C)NC(=O)CN(C(=O)c1csnn1)c1ccccc1-c1ccccc1
  -4.3 | -7.8 | 2.7 | 0.666 | 13.2 | 18.9 | -0.5 | i | 4.7
38: O=C(N/N=C/c1cc2c(cc1Cl)OCO2)c1ccccn1
  -1.7 | -1.0 | · | · | 8.7 | 6.0 | 1.7 | i | -2.3
39: CC(C)Oc1ccc(C(=O)Nc2c3c(nn2-c2ccccc2)CS(=O)(=O)C3)cc1
  -0.5 | -2.5 | 1.5 | 0.702 | -4.6 | -7.0 | -0.1 | i | 3.7
40: COc1ccc(CCNC(=O)C/C(C)=N/NC(=O)COc2ccc(C)cc2Br)cc1OC
  -4.9 | 1.7 | · | · | -12.4 | -17.7 | 1.1 | i | -8.2
41: Cc1nc(SCC(=O)Nc2ccc3[nH]c(=O)[nH]c3c2)nc(C)c1C
  -0.7 | 5.6 | 1.1 | 0.668 | 1.5 | 12.5 | 0.7 | i | 6.7
42: Cc1ccc(NC(=O)COC(=O)CCc2c(C)nc3ncnn3c2C)cc1C
  -0.9 | -4.0 | 1.9 | 0.701 | 7.1 | -7.2 | -0.7 | i | -2.3
43: CC12CCC(=O)N1c1c(sc3nc(N4CCOCC4)c4c(c13)CCCC4)C(=O)N2 (configuration not stated)
  3.0 | -66.7 | i | 0.7 | · | · | · | · | -0.6
44: CCCOc1ccc(S(=O)(=O)N2C(=O)CC(=O)N(Cc3ccc(OCC)cc3)C2=O)cc1
  · | · | -0.4 | 0.673 | 13.8 | -0.5 | 1.9 | i | ·
45: CC(C)c1ccccc1OCC(O)CN1CCN(S(=O)(=O)c2ccc([N+](=O)[O-])cc2)CC1 (configuration not stated)
  -1.5 | -0.9 | 2.7 | 0.662 | -11.1 | -8.8 | 2.3 | i | 1.4
46: Nc1ccc2nc(-c3cccc(-c4nc5ccc(N)cc5[nH]4)n3)[nH]c2c1
  6.0 | 98.8* | 8.4 | 0.689 | -3.4 | 5.2 | -5.8 | i | 29.8
47: Cc1ccc(S(=O)(=O)/C(=C\N(C)C)c2cnc(Cl)s2)cc1
  -2.1 | 54.4 | 3.5 | 0.678 | -29.0 | -36.9 | -9.4 | i | 0.8
48: Cc1c(CCCC(=O)O)sc(N)c1C(=O)c1cccc(C(F)(F)F)c1
  4.1 | 96.3* | 1.6 | 0.67 | 7.0 | 10.8 | 5.2 | i | -1.4
49: O=C(Cn1cc(F)c(=O)[nH]c1=O)c1ccco1
  1.2 | · | · | · | 11.6 | 14.1 | -2.3 | i | ·
50: COc1ccc(NS(=O)(=O)c2cc(C)ccc2OC)cc1OC
  -2.1 | 1.1 | 4.0 | 0.734 | · | · | · | · | 3.4
51: O=C(NCCOC(=O)c1ccc(C(=O)OCCNC(=O)c2cccnc2)s1)c1cccnc1
  -4.8 | -4.4 | -0.5 | 0.654 | · | · | · | · | 3.0
52: O=C(Nc1ccccc1)c1cc(S(=O)(=O)N2CCSCC2)ccc1Cl
  1.0 | -6.9 | 1.6 | 0.722 | -0.8 | 4.7 | 1.6 | i | -1.7
53: O=C(NCCN1C(=O)S/C(=C\c2ccc(OC(F)F)cc2)C1=O)C1=COCCO1
  1.2 | -0.6 | 6.1 | 0.698 | · | · | · | · | 1.2

From PubChem BioAssay
